TDP1 block – blocks human tyrosyl-DNA phosphodiesterase 1. 350,000 tested, 0.28% active. recombinant TDP1, AlphaScreen DNA substrate cleavage. Potency, µM (titrated, usually from 130 µM), for the others: at the top dose activity change, negative = inhibition, most hits filed as inhibitors; note: nearly all actives have a fitted effect of over 40% in size
Target sequence (Q9NUW8 whole entry, looked up): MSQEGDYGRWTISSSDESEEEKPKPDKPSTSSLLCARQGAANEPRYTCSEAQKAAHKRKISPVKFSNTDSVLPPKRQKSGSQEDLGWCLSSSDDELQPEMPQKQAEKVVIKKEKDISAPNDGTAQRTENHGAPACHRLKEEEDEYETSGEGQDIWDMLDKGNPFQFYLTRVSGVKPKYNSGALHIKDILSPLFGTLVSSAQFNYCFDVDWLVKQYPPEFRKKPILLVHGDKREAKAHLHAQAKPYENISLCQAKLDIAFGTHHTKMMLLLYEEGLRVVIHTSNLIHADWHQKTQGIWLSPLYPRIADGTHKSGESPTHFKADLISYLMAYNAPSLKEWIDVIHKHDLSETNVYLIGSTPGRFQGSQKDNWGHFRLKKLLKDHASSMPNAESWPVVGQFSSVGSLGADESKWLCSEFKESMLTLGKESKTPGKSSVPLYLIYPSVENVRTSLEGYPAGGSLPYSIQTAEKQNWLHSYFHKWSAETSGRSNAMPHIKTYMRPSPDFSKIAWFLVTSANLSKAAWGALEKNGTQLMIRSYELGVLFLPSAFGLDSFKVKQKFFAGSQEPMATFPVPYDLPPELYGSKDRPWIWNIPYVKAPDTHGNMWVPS
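E. coli-derived human Tdp1, 1 nM final. Cpd preinc 15 min RT; substrate 15 nM final, 5 min RT; AS bead mix 10 ug/ml final, 10 min RT. Signal loss = tyrosine-FITC cleavage. No-enzyme wells = max signal.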
N370S GC mod – N370S glucocerebrosidase modulation, Gaucher chaperone candidate. P04062. N370S GC spleen homogenate, 4MU-glucoside fluorescence. Potency, µM (doses to about 59.4 µM), for the others: top-dose activity change, negative = inhibition, hits mostly inhibitors. 330,000 tested, 0.092% active;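 note: 0% = full enzyme activity and -100% = no enzyme basal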
* = called active by the depositor; ? = inconclusive; · = no result given; & = joins results of further samples; [ ] = dose if it differs, or a comment. Calls come from the whole dose curve; as a rule, active = well fitted curve in the direction sought with a large enough effect; inconclusive = small, poorly fitted or top-dose-only effect, or another doubt; inactive = no such curve, though single readings can be large; an effect the other way counts as inactive or inconclusive. Unless noted, % is set by controls: 0 for no effect and ±100 for the full control effect; potency is the fitted concentration of half-maximal effect. These rows are one share of the data, and most or all hits are left out here.

SMILES | TDP1 block | N370S GC mod
Cc1cccc(Nc2nc(N)c([N+](=O)[O-])c(NCCO)n2)c1 | 4% | -3%
OC1(Cc2cc(-c3ccccc3)no2)CCN(CCCc2ccccc2)CC1 | · | -14%
S=C(Nc1ccc2c(c1)OCO2)Nc1ccc2c(c1)OCO2 | -3% | -8%
CCN1CCCC1Cn1cnc2c([nH]c3cc(OC)ccc32)c1=O (centres undefined) | 8% | 2%
Cc1c(C(=O)Nc2cccc([N+](=O)[O-])c2)sc2ncn(CC(=O)N3CCOCC3)c(=O)c12 | 1% | -10%
COc1cc2c(cc1NC(=O)c1cncc(Br)c1)oc1ccccc12 | 1% | 3%
CN(C)C(=O)C(CCN1CCC(O)(c2ccc(Cl)cc2)CC1)(c1ccccc1)c1ccccc1 | 11%[56.1 µM] | -4%
O=C(Cc1ccccc1)N/N=C/c1cccs1 | -4% | 9%
CCOC(=O)c1c(C)[nH]c(C)c1C(=O)COC(=O)CNC(=O)c1ccc(OCC)cc1 | 6% | 3%
CCOc1ccccc1N(CC(=O)NC1CCCCC1)C(=O)CCCC(=O)Nc1ccccn1 | 0% | 5%
CCOC(=O)Nc1cccc2ccccc12 | 1% | 7%
C=C(C(=O)c1ccccc1)C(C)C(=C)C(=O)c1ccccc1 | -5% | 15%
O=C(Cc1cccc(C(F)(F)F)c1)NCc1ccc(Cl)cc1 | -2% | -4%
C/C(=N\Nc1ncc(Cl)cc1Cl)c1ccc(C#N)cc1 | -1% | 1%
Cc1ccc(NC(=O)Cn2c(CCC(=O)O)ccc2-c2cccs2)cc1 | -2%&-1% | 0%
Cc1ccc(CN2C(=O)N/C(=C/c3cc(C)n(-c4ccccn4)c3C)C2=O)cc1 | 5% | -7%
O=C(CN1CCc2ccccc21)NN1CC(=O)N(c2ccc(Cl)cc2)CC1=O | 7% | 1%
COc1ccc(S(=O)(=O)N2CC(C(=O)O)Oc3ccc(Cl)cc32)cc1 (centres undefined) | · | -5%
COc1ccccc1OC[C@H](O)CO | -4%[56.1 µM] | 1%
Cn1ncc2c(N3CCN(c4ccccc4F)CC3)ncnc21 | 8%&2% | -19%
CCCNC(=S)N1CCC(c2nc3cc(C)c(C)cc3[nH]2)CC1 | 4% | 12%
C/C(=N\NC(=O)c1nn(C)cc1Br)c1cccc(NC(=O)C2CCCC2)c1 | 1% | -5%
COc1ccc(OC)c(S(=O)(=O)NC(C)c2cnn(-c3ccccn3)c2C)c1 (centres undefined) | -11% | -18%
Cc1onc(C(=O)NC2CCCCC2)c1[N+](=O)[O-] | 1% | -3%
Cc1cc(=O)oc(C)c1C(=O)Nc1c(C)n(C)n(-c2ccccc2)c1=O | 2% | 6%
COc1ccc(Br)c(C(=O)N(C)CC(=O)Nc2ccc(N3CCOCC3)cc2)c1 | · | -1%
COc1ccc(-c2noc(C3CCCN(C(=O)c4ccc(C)cc4)C3)n2)cc1 (centres undefined) | -1% | 14%
Cc1cc2n(n1)C(c1cc(C(C)(C)C)c(O)cc1O)Nc1ccccc1-2 (centres undefined) | 2% | ·
O=C(NCCN1CCc2ccccc2C1)Nc1ccc([N+](=O)[O-])cc1 | 2% | -6%
O=C(c1cn2ccccc2n1)N1CCCC(Nc2ccc(F)c(F)c2)C1 (centres undefined) | 4% | -15%
Cc1ccc(Cn2nnc3c(=O)n(CC(=O)N4CCCc5ccccc54)cnc32)cc1 | 6% | -3%
C/C(=N\NC(=O)CC(C)C)c1ccc(N2CCCCC2)cc1 | 4% | -17%
COc1ccccc1CCNC(=O)C1CCC(=O)N(Cc2ccccc2OC)C1 (centres undefined) | 1% | -3%
O=C(NCCCn1ccnc1)Nc1ccc2c(c1)OCO2 | · | 1%
CC(=O)Nc1cccc([N+](=O)[O-])c1 | 0% | -3%
O=C1CCC/C1=c1\s/c(=C\c2cccnc2)c(=O)n1-c1ccccc1 | 6% | -7%

Reformatted: results already given
molecule	TDP1 block	N370S GC mod
Cc1cc2n(n1)C(c1cc(C(C)(C)C)c(O)cc1O)Nc1ccccc1-2 (centres undefined)	2%	·
Cc1ccc(Cn2nnc3c(=O)n(CC(=O)N4CCCc5ccccc54)cnc32)cc1	6%	-3%
O=C(NCCCn1ccnc1)Nc1ccc2c(c1)OCO2	·	1%
O=C(c1cn2ccccc2n1)N1CCCC(Nc2ccc(F)c(F)c2)C1 (centres undefined)	4%	-15%

More results.
SMILES | TDP1 block | N370S GC mod
COc1cc(OC)c(NC(=O)CCNS(=O)(=O)c2cc(Br)cnc2N)cc1Cl | 5% | 8%
COCC(=O)Nc1cc(C(=O)NCC(C)C)ccc1Cl | -3% | 0%
O=C(NC1CCCCC1)N(Cc1cc2cc3c(cc2[nH]c1=O)OCCO3)CC1CCCO1 (centres undefined) | 4% | 13%
CCN(C(=O)Cn1cc(C(C)=O)c2ccccc21)c1ccccc1 | 6% | -3%
CN1CCN(c2ccccc2NC(=O)COc2ccc(C3CCCCC3)cc2)CC1 | 9%[56.1 µM] | -5%
Cc1ccsc1C(=O)Nc1nc2ccccc2[nH]1 | 9% | 7%
O=C(NCC(c1ccc(F)cc1)N1CCOCC1)c1ccco1 (centres undefined) | 0% | 0%
C[C@H](NC(N)=O)C(=O)Nc1ccc(OCc2ccccc2)cc1 | -3% | 5%
CCCc1cc(=O)oc2cc(C)cc(OCC(=O)NCCCn3ccnc3)c12 | 2% | -1%
COC(=O)c1cnc(SCc2ccc(C)cc2)n1C | -1% | -13%
COc1ccc(NC(=O)N(C)C[C@H]2Oc3c(NS(=O)(=O)c4cn(C)cn4)cccc3C(=O)N([C@H](C)CO)C[C@@H]2C)cc1 | 1% | ·
O=C(CN1C(=O)NC2(CCOc3ccccc32)C1=O)NCc1ccc(F)cc1 (centres undefined) | 0% | ·

Whole records from above:
Record of O=C(NCC(c1ccc(F)cc1)N1CCOCC1)c1ccco1 (centres undefined) : TDP1 block = 0%; N370S GC mod = 0%
Record of COC(=O)c1cnc(SCc2ccc(C)cc2)n1C : TDP1 block = -1%; N370S GC mod = -13%

Next section:
SMILES | TDP1 block | N370S GC mod
COc1ccc(-c2cn[nH]c2-c2ccc(O)cc2O)cc1OC | · | 1%
CC(Oc1ccc(Cl)cc1)C(=O)/C=C/N(C)C (centres undefined) | -1% | -14%
Cc1onc(-c2c(Cl)cccc2Cl)c1C(=O)NCc1cccs1 | 0% | 22%
COCCNC(=O)CN1C(=O)NC2(CCOc3ccccc32)C1=O (centres undefined) | 5% | -8%
N/C(=N\OS(=O)(=O)c1ccccc1)c1cccnc1 | 5% | -2%
CCCCc1c(O)nc(SCC(=O)O)[nH]c1=O | 2% | -14%
O=C(Cc1n[nH]c(=O)c2ccccc12)Nc1cc(Cl)ccc1-n1cncn1 | · | -14%
COc1cc(OC)c(-c2nc3ccccc3s2)cc1OC | -1% | ?
Cc1cc(C(=O)OCC(=O)N2CC(=O)Nc3ccccc32)no1 | -2% | -1%
CCOc1ccc(OCCC(=O)N(CC)CC(=O)NCc2cccs2)cc1 | 0% | ·
CCOc1ccccc1N1CCN(C(=O)Cc2ccc(S(=O)(=O)N3CCOCC3)s2)CC1 | 2% | -7%
CCCS(=O)(=O)NCc1cn2cccc(C)c2n1 | 3% | -9%
NC(=O)CCn1cnc2ccccc21 | -2% | -12%
CCCN(C(=O)c1ccc(OCC(C)C)cc1)c1c(N)n(Cc2ccccc2)c(=O)[nH]c1=O | -8% | -1%
COC(=O)c1ccc2c(c1)NC(=O)C(N1CCCC1)S2 (centres undefined) | 1% | 3%
COc1ccc(Cl)cc1C(=O)OCC(=O)NCc1cccs1 | 0% | ·
Fc1ccc(OCCCCCN2CCCC2)cc1 | 3% | 6%
Cc1cccc(N2CCN(c3nc4ccccc4n4cnnc34)CC2)c1C | 2% | 8%
COc1cc2nc(SCC(=O)c3ccc(Br)cc3)n3nc(C)nc3c2cc1OC | 3% | -2%
COC(=O)c1cnc(NNS(=O)(=O)c2ccc(C(F)(F)F)cc2)nc1C(F)(F)F | 2% | -3%
CC1(c2nnc(-c3ccc(Cl)cc3)o2)CC(c2ccc([N+](=O)[O-])cc2)=NO1 (centres undefined) | 4% | -3%
CCCCC(=O)N1CC(=O)Nc2ccc(F)cc2C1c1ccc(F)cc1 (centres undefined) | -3% | -14%
CC(=O)Nc1cccc(/C(C)=N\NC(=O)c2ccc(Cn3nc([N+](=O)[O-])c(Cl)c3C)o2)c1 | 8% | -10%
O=C(CS(=O)CC(=O)NC12CC3CC(CC(C3)C1)C2)Nc1ccc(F)cc1 (centres undefined) | · | -3%

Gathered by group: the entries above containing a furan ring, fused or not (3)
SMILES | TDP1 block | N370S GC mod
COc1cc2c(cc1NC(=O)c1cncc(Br)c1)oc1ccccc12 | 1% | 3%
O=C(NCC(c1ccc(F)cc1)N1CCOCC1)c1ccco1 (centres undefined) | 0% | 0%
CC(=O)Nc1cccc(/C(C)=N\NC(=O)c2ccc(Cn3nc([N+](=O)[O-])c(Cl)c3C)o2)c1 | 8% | -10%

Returning to the listing, starting 4 compounds before the break.
SMILES | TDP1 block | N370S GC mod
CC1(c2nnc(-c3ccc(Cl)cc3)o2)CC(c2ccc([N+](=O)[O-])cc2)=NO1 (centres undefined) | 4% | -3%
CCCCC(=O)N1CC(=O)Nc2ccc(F)cc2C1c1ccc(F)cc1 (centres undefined) | -3% | -14%
CC(=O)Nc1cccc(/C(C)=N\NC(=O)c2ccc(Cn3nc([N+](=O)[O-])c(Cl)c3C)o2)c1 | 8% | -10%
O=C(CS(=O)CC(=O)NC12CC3CC(CC(C3)C1)C2)Nc1ccc(F)cc1 (centres undefined) | · | -3%
O=C(OCC(=O)N1CCCc2ccccc21)c1ccc(C(F)(F)F)cc1 | · | 12%
COc1cccc(OCCOCCOc2ccc(C)cc2[N+](=O)[O-])c1 | 3% | 6%
O=C1OC(c2ccccc2)=N/C1=C\N1CCCCC1 | 6% | 6%
C=CCNC(=O)NC(=O)COC(=O)[C@H](C)NS(=O)(=O)c1c(C)c(C)cc(C)c1C | -1% | 15%
COc1ccccc1OCC(=O)Nc1ccccc1C(=O)NCc1cccnc1 | · | 3%
O=C(Oc1cccc(C(=S)N2CCOCC2)c1)c1ccccc1 | · | -1%
Cn1c(=O)oc2cc(S(=O)(=O)NCc3ccc(C(=O)O)cc3)ccc21 | -1% | 5%
O=C(c1cc(-c2ccccc2)nc2ccccc12)N1CCCC1 | 5% | 1%
CC(=O)NC(=S)Nc1cccc([N+](=O)[O-])c1 | -5% | -3%
CO/N=C/CC(=O)c1ccc(-c2ccccc2)cc1 | -11% | 10%
CC(C)NC(=O)COC(=O)C1CSC2(c3ccc(Br)cc3)CCC(=O)N12 (centres undefined) | 0% | -3%
O=C(CNC(=O)c1ccco1)Nc1ccc2c(c1)OCCO2 | · | -5%
O=C(Nc1cc(Cl)ccc1O)C1CC(c2ccccc2O)=NO1 (centres undefined) | · | -10%
Cc1cc(C(=O)Cn2nnc(-c3ccc(Cl)cc3)n2)c(C)n1-c1ccccc1 | 3% | 4%
COc1cc(NC(=O)COC(=O)c2cnccn2)c(C)cc1[N+](=O)[O-] | 7% | -12%
COc1ccc(-c2nn(-c3ccccc3)cc2/C=C/C(=O)N2CCOCC2)cc1OC | 4% | -12%
CCOC(=O)C1(Cc2cccc(OC)c2)CCN(CCO)CC1 | · | -2%
Cc1cc(=O)[nH]c(SCn2nnc3ccccc3c2=O)n1 | 1% | -4%
COc1ccccc1C(=O)Nc1cc(-c2ccc(C)cc2)no1 | -9% | -11%
O=C(CCN1C(=O)c2ccccc2C1=O)Nc1ccc(F)cc1 | -1% | 1%
Cc1ccc(C(=O)O[C@H](C(=O)O)[C@@H](OC(=O)c2ccc(C)cc2)C(=O)O)cc1 (tested in a mixture with another compound) | 7%[56.1 µM] | 1%
O=S(=O)(NCCc1csc(-c2cccnc2)n1)c1cccc(F)c1 | 3% | -7%
Cc1ccc(Cn2nnc3c(=O)n(CC(=O)NCC4CCCO4)cnc32)cc1 (centres undefined) | 6% | 6%
COc1ccc(N2CC(NS(=O)(=O)c3cccs3)CC2=O)cc1OC (centres undefined) | -2% | 2%
